Ecoli growth – E. coli growth inhibition, primary screen, OD600. Escherichia coli growth, 23 h; hits give low values. OD600 absorbance (no concentration beside the values). hit rate 0.21% among 330,000. AID 1053175, 2014;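 active means OD600 absorbance below the run mean of sample wells minus 3.6 SD, in any replicate, cut at about 0.56 in these data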;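 further: stock transfer was 300 nL into about 60 µL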
UCH37 inh – inhibitors of human UCH37 deubiquitinase, primary screen, biochemical, Ub-AMC cleavage, fluorescence | Ubiquitin carboxyl-terminal hydrolase isozyme L5 (Homo sapiens), Q9Y5K5 | purified proteasome/UCH37 | inhibition, % (no concentration beside the values) | hit rate 0.33% among 330,000 | AID 588478, 2011;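 active means mean of two replicates above 20%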;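 further: 0% = compound-free wells with enzyme and 100% = wells lacking proteasome; stock transfer was 100 nL into about 20 µL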
Target sequence (Q9Y5K5 whole entry, looked up): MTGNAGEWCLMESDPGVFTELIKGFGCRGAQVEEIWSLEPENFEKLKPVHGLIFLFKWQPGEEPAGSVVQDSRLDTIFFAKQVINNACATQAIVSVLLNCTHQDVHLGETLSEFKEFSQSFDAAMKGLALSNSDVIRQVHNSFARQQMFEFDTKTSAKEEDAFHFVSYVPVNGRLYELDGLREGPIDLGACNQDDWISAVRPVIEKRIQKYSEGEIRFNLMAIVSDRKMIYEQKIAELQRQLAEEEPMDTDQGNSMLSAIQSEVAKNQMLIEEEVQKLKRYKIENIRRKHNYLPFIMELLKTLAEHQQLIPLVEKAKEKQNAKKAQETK
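Schedule: 30 min plus 25 min, room temperature / Material: human UCH37 within purified proteasomes / Technique: AMC fluorescence intensity at 355/460 nm / Buffer or medium: pH 7.4 Tris-HCl (50 mM) with ovalbumin, ATP-MgCl2, DTT / Controls: wells without proteasome as full block, compound-free enzyme plus substrate as uninhibited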
B2AR ag – beta2AR agonists driving receptor internalization, primary screen, cell-based, FAP fluorogen, flow cytometry; Beta-2 adrenergic receptor (Homo sapiens), P07550; Am2.2-beta2AR cells; reference of the scale not given here; response, % (no concentration beside the values); hit rate 0.43% among 340,000; AID 504454, 2011;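 active means response above a set limit, near 3 SD of response in nonfluorescent compounds, cut at about 42% in these data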;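 further: stock transfer was 100 nL into about 11 µL; a reference agonist was the positive control; negative values mostly stem from fluorescent compounds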
Target sequence (P07550 whole entry, looked up): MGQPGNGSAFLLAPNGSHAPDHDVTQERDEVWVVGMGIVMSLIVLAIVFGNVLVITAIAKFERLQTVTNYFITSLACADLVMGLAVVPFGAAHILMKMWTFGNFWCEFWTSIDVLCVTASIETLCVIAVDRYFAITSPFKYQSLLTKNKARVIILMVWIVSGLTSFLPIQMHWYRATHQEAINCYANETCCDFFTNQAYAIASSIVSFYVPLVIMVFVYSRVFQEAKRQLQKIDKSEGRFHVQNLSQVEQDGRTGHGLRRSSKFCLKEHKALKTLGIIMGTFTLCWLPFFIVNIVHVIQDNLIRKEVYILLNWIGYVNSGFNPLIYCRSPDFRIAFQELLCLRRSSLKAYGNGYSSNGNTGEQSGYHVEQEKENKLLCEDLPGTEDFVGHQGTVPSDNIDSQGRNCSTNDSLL
ALR H2O2 inh – inhibitors of human ALR sulfhydryl oxidase, primary screen, biochemical, H2O2 detection, HRP-luminol luminescence, single point; FAD-linked sulfhydryl oxidase ALR (Homo sapiens), P55789; purified ALR, DTT oxidation; hit rate 3.8% among 290,000; inhibition, % (no concentration beside the values);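 active means mean and each replicate at 75% or more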;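 further: stock transfer was 7.5 nL into about 7.5 µL; 0% = neutral wells and 100% = wells with inactivated enzyme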
Target sequence (P55789 whole entry, looked up): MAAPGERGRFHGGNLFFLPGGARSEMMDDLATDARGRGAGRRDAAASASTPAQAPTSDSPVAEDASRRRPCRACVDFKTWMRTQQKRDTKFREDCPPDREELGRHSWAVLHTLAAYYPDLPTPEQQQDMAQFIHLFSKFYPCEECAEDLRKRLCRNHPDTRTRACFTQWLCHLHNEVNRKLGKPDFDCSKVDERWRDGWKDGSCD
rRNA inh HTS – reduced GFP signal of wild-type E. coli, primary screen, bacterial rRNA inhibitor project, GFP/RFP fluorescence, OD600, single point; E. coli WT GFP vs humanized-ribosome RFP mutants, 24 h; hits give low values; DMSO median 0, no signal -100; GFP signal change (wild-type ribosome), % (no concentration beside the values); hit rate 1.6% among 350,000;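 active means significant combined selectivity score with lowered wild-type GFP, culture density cut under 30%, mutant RFP and density less affected; inactive means any of these conditions unmet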; further: one replicate is shown; some compounds called inactive have numbers as strong as hits
FGF22 binding – binders of human FGF22 protein, primary screen, FGF22 synaptogenesis inhibitor project, biophysical, thermal shift, single point. calls only at 9.99 µM. AID 651658, 2012. Fibroblast growth factor 22 (Homo sapiens), Q9HCT0. recombinant FGF22 thermal shift, SYPRO orange fluorescence; percent of sucrose octasulfate shift, DMSO zero. hit rate 1.5% among 340,000;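 active means melting point raised past a set limit in the mean and every replicate; three in four hits are not shown here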
HNF4A DNA FP – change in binding of human HNF4A to DNA, primary screen, biochemical, fluorescence polarization, FITC-DNA; AID 1224865, 2016; 1 h; activity change, % at 10 µM; hit rate 0.3% among 360,000; Hepatocyte nuclear factor 4-alpha (Homo sapiens), P41235; in the data active means activity change above about 30%, passing the limit was not always enough;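 further: controls were the assay level and a saturating level of protein; the project sought stronger binding though the title names inhibitors; some compounds called inactive have numbers as strong as hits; positive values seem to mean higher polarization but the record does not say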
rRNA inh HTS OD600 – second read-out of rRNA inh HTS, no call of its own (marks repeat the call); OD600 change, %; measured here: OD600 growth;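 optical density of the mix in the first replicate; 0 = DMSO median and -100 = no signal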
rRNA inh HTS RFP – second read-out of rRNA inh HTS, no call of its own (marks repeat the call); RFP signal change, %; measured here: RFP humanized mutant strains;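 first replicate; 0 = DMSO median and -100 = no signal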
The depositor's hits bear a star; i = inactive; x = no result given; & = joins results of further samples. An excerpt; count on the stated rates, not on these rows.

item	compound	Ecoli growth	UCH37 inh	B2AR ag	ALR H2O2 inh	rRNA inh HTS	rRNA inh HTS OD600	rRNA inh HTS RFP	FGF22 binding	HNF4A DNA FP
1	CC(=O)c1ccc(N(CC(=O)NCC2CCCO2)C(=O)CCC(=O)Nc2cc(C)on2)cc1 (stereo not drawn)	0.64	1.2	-2.2	-0.4	1.7	2.4	1.2	i	-2.0
2	Cc1cccc(C)c1NC(=O)C1(NC(=O)C2CCCN2C(=O)OC(C)(C)C)CCCCC1 (stereo not drawn)	0.718	1.1	9.3	x	x	x	x	x	-4.7
3	Cc1ccc(-c2nc3ccc(C(=O)O)cc3nc2-c2ccc(C)cc2)cc1	0.705	i	1.1	x	x	x	x	x	-3.3
4	COc1ccc([N+](=O)[O-])cc1NC(=O)c1ccc(N(Cc2ccccc2Cl)S(C)(=O)=O)cc1	0.706	6.5	1.4	x	x	x	x	x	1.7
5	COc1ccc(NC(=S)/N=C(\N)Nc2nc(C)c3ccc(C)cc3n2)cc1	0.74	8.6	3.0	x	-3.5	1.4	-0.3	i	0.7
6	Cc1ccccc1N=Cc1cc2c(cc1O)OC(N)=C(C#N)C2c1ccccc1 (stereo not drawn)	0.707	-3.2	20.4	x	-11.0	-10.8	13.9	i	35.4
7	CCOC(=O)c1csc(NC(=O)c2cccs2)n1	0.674	1.7	-2.4	1.2	-4.8	-24.6	-4.3	i	-4.0
8	O=C(COC(=O)/C=C/c1ccc(Br)o1)NCCCN1CCCC1=O	x	x	-2.3	-5.9	8.9	7.5	-4.7	i	2.6
9	Cc1c(C(=O)N2CCCCC2)c(S(=O)(=O)NCc2ccc(Cl)cc2)c(C)n1C	0.687	-1.5	-20.8	-2.6	-1.5	1.2	-2.2	i	-5.3
10	OC(CN=c1sc2ccccc2n1CC(O)COc1ccccc1)COc1ccccc1 (stereo not drawn)	0.726	2.9	9.3	-3.6	x	x	x	x	-1.5
11	NC(=O)C1CCN(C2CC(=O)NC2=O)CC1 (stereo not drawn)	0.672	1.6	-1.7	-5.3	20.4	16.0	3.0	i	-1.4
12	O=C(/C=C/c1ccco1)OCc1nnc(-c2ccccc2)o1	0.673	1.8	-1.9	12.1	-26.0	-23.9	-0.1	i	-6.5
13	CNS(=O)(=O)c1cccc(C(=O)OCC(=O)NC2CCCC2)c1	0.669	-1.9	3.8	3.1	3.3	6.2	3.2	i	-3.2
14	COc1ccc2nc(SCC(=O)Nc3cc(C)on3)[nH]c2c1	0.623	1.4	-10.2	-2.2	x	x	x	x	-0.2
15	O=C(Cc1ccc([N+](=O)[O-])cc1)Nc1ccc(Br)cn1	0.675	3.4	-14.8	x	4.1	9.6	-0.1	i	1.4
16	O=C(CNS(=O)(=O)c1ccccc1)NCC(=O)OCc1ccc(Br)cc1	0.702	0.3	7.2	-5.8	-6.2	-1.7	1.6	i	0.3
17	CN(C)c1nc(-c2ccccc2)nnc1C(F)(F)F	0.776	0.2	-1.6	2.1	x	x	x	x	-0.1
18	Cc1noc(/C=C/N(C)C)c1S(=O)(=O)NC1CCCCC1	0.757	14.5	4.5	15.1	x	x	x	x	2.1
19	O=C(Oc1ccc(Br)cc1C(=S)N1CCOCC1)c1cccc([N+](=O)[O-])c1	0.68	1.9	11.1	14.4	12.0	8.9	3.6	i	-3.5
20	CCOc1ccc(CN2CCN(CCCc3ccccc3)C(CCO)C2)cc1 (stereo not drawn)	0.665	0.5	0.4	-3.4	0.3	5.5	-3.6	i	-4.2
21	CCCCNC(=O)CCSc1ccc(C)cc1	0.583	0.1	-6.3	-7.2	x	x	x	x	-1.0
22	Cc1cccc(C)c1NC(=O)C(Cl)=C(Cl)Cl	0.731	0.6	-2.0	x	-4.5	-3.7	-4.0	i	3.5
23	COc1ccc2[nH]c3nc(SCC(=O)NC4CC4)nnc3c2c1	0.632	5.5	-2.1	1.1	1.4	7.9	-1.1	i	1.9
24	O=C(NCc1ccccc1)c1ccc(Br)cc1Br	0.661	-1.2	-3.9	1.1	x	x	x	x	3.5
25	C[C@H](CCC(=O)O)[C@H]1CC[C@H]2[C@@H]3CC[C@@H]4C[C@H](O)CC[C@]4(C)[C@H]3C[C@H](O)[C@]12C	0.722	6.0	-0.5&5.3&2.9	8.3	-13.6	-6.0	8.6	i	-1.4&1.9&-3.4

Just Ecoli growth and rRNA inh HTS RFP, for 2 of the compounds above:
item	molecule	Ecoli growth	rRNA inh HTS RFP
7	CCOC(=O)c1csc(NC(=O)c2cccs2)n1	0.674	-4.3
8	O=C(COC(=O)/C=C/c1ccc(Br)o1)NCCCN1CCCC1=O	x	-4.7

Other entries follow.
item	compound	Ecoli growth	UCH37 inh	B2AR ag	ALR H2O2 inh	rRNA inh HTS	rRNA inh HTS OD600	rRNA inh HTS RFP	FGF22 binding	HNF4A DNA FP
26	CCOC(CNC(=O)c1ccc2c(c1)ncn2-c1ccccc1OC)OCC	0.715	3.0	-1.0	-5.0	-4.5	2.0	-3.5	i	0.5
27	Cc1c(C(=O)OC(C)C)nnn1-c1nonc1N	0.708	-0.2	-6.8	x	x	x	x	x	1.3
28	O=C(c1ccc(N2CCCC2=O)cc1)N1CCN(c2ccccc2Cl)CC1	0.714	0.5	-8.9	2.8	-3.9	3.2	-1.7	x	-0.6
29	CN(CC(=O)Nc1ccccc1C(F)(F)F)C(=O)c1cc(Cl)nc2ccccc12	0.649	-1.7	-3.2	-5.4	1.5	1.0	0.4	x	1.1
30	COC(=O)CNC(=O)c1ccc(C)s1	0.742	3.8	0.3	-12.4	x	x	x	x	-1.0
31	CC(=O)c1c(C)[nH]c(C(=O)OCC(=O)N2CC(C)OC(C)C2)c1C (stereo not drawn)	0.67	2.1	-6.7	13.2	6.7	8.0	-1.4	x	1.8
32	CCO[C@@H]1OC(C(=O)O)=C[C@H](c2coc3ccccc3c2=O)[C@H]1CCCO	x	0.5	1.5	13.4	16.9	12.3	1.9	i	-0.1
33	CN(C)c1cc(-c2ccc([N+](=O)[O-])cc2)oc(=O)c1Cl	0.648	0.8	2.9	-26.8	11.6	15.8	2.6	x	-0.9
34	O=C(c1cccc(N2CCCC2=O)c1)N1CCOCC1	0.681	3.5	0.0	-3.0	x	x	x	x	-2.9
35	Cc1cc(NC(=O)CN2CCN(c3cccc(Cl)c3)CC2)no1	0.698	-2.6	5.1	22.5	-15.4*	1.6*	3.4*	i	0.3
36	CCCCc1nnc(SCC(=O)NC2CCCCC2)n1C	0.718	1.0	7.5	-0.1	5.1	15.9	1.2	i	-1.0
37	COc1ccc(CCNC(=O)CCN2C(=O)COc3ccccc32)cc1OC	0.62	-0.5	-3.9	0.2	0.5	-2.0	-5.0	x	1.2
38	O=[N+]([O-])c1ccc(N2CCN(c3ccccc3)CC2)cc1	0.734	5.4	-2.9	-2.9	17.5	18.6	1.7	i	-1.1
39	CC(=O)Nc1sc2c(c1C(c1ccccc1)N1CCOCC1)CCCC2 (stereo not drawn)	0.692	3.7	-1.0	5.8	x	x	x	x	1.3
40	O=C(c1ccc(N2CCOCC2)c([N+](=O)[O-])c1)N1CCCC(C(F)(F)F)C1 (stereo not drawn)	0.683	3.6	-0.4	-12.9	-4.8	-4.4	-3.0	i	1.1
41	C[C@H]1CC[C@@]2(O[C@@H](CCO)C[C@H](O)[C@H]2O)O1	x	2.5	1.4	-1.7	6.1	5.4	1.8	i	-3.8
42	NC(=O)N/N=C/c1cc(F)cc(F)c1	x	x	10.1	3.5	8.4	3.8	0.8	i	2.0
43	COc1ccc(N2CCCn3c2nc2c3c(=O)n(CCN3CCOCC3)c(=O)n2C)cc1	x	0.1	-2.4	-27.2	x	x	x	x	1.0
44	COc1ccc(Cl)cc1C(Nc1cccnc1)c1ccc2cccnc2c1O (stereo not drawn)	0.725	-0.1	8.4	-43.2	-23.3*	-18.6*	-6.1*	i	-0.1
45	CC(C)N1CCSC1=S	0.664	3.3	-3.5	x	x	x	x	i	-3.9
46	Cc1cc(C)c(NC(=O)CCCCCNC2CCCCC2)c(C)c1	x	x	-1.6	1.0	8.3	7.6	0.6	i	-0.5
47	COc1ccc2cc(C(=O)N3CCC(Cc4ccccc4)CC3)[nH]c2c1	0.671	-0.4	-3.4	-3.3	4.9	15.0	1.5	i	3.6
48	CC(=O)N1CCN(S(=O)(=O)c2c(F)cc(F)c(Cl)c2F)CC1	0.732	1.7	2.6	-5.5	19.2	13.8	5.8	i	-2.5
49	Cc1cccc(NS(=O)(=O)c2cc(C(=O)N3CCCCCC3)ccc2C)c1	x	x	-3.6	-3.5	-16.9	-12.0	5.3	i	4.8
50	Cc1ccc(C)c(OCC(=O)Nc2cc(NC(=O)COc3cc(C)ccc3C)cc(C(=O)O)c2)c1	0.575	-2.7	6.4	6.2	-31.8	-33.6	1.8	x	-4.8

item	compound	Ecoli growth	UCH37 inh	B2AR ag	ALR H2O2 inh	rRNA inh HTS	rRNA inh HTS OD600	rRNA inh HTS RFP	FGF22 binding	HNF4A DNA FP
51	NC(=O)CCS(=O)(=O)c1ccccc1	0.667	1.5	2.4	1.0	x	x	x	x	-6.0
52	C[C@]12CCC(=O)CC1CCC1C2CC[C@@]2(C)C1CC[C@@]21CCO1 (stereo partly drawn)	0.661	5.3	-10.0	-3.3	-47.8	-75.5	-19.3	i	-1.3
53	Oc1c(C(c2cccc(F)c2)N2CCN(Cc3ccccc3)CC2)sc2ncnn12 (stereo not drawn)	0.779	3.5	-6.2	-6.7	-2.7	-0.1	2.9	i	-0.1
54	Cc1ccc(NC(=S)C2=C(O)c3sccc3N(C)S2(=O)=O)cc1	0.715	24.0*	5.9	11.4	x	x	x	x	0.4
55	O=C(Nc1ccccc1SCC1CSc2nc3ccccc3c(=O)n21)c1ccccc1 (stereo not drawn)	0.779	5.8	7.2	-31.9	x	x	x	x	4.5
56	COC(=O)c1ccccc1NC(=O)CSc1[nH]c(=O)cc(C)c1C#N	0.647	2.7	3.8	-5.4	11.7	7.9	-0.5	x	1.1
57	O=C(O)CC1(CC(=O)NCc2cc(F)cc3c2OCOC3)CCCCC1	0.65	1.5	4.3	-15.4	6.8	-10.2	0.5	i	0.3

Screening results: PubChem, several laboratories
